# Bioassay records (PubChem BioAssay)
# Env fusion inh: blocks HIV Env-driven cell-cell fusion | HeLa-JRFL Env/CEM21 cell fusion, luciferase | inhibition, % at 12.3 µM | hit rate 1.1% among 360,000;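 active = mean replicate inhibition score of at least 50 and every replicate individually at or above 50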;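 note: 0% = plate neutral controls and 100% = maraviroc near 300 nM; one replicate is shown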
# An asterisk follows results filed as active; [ ] = another dose, or the depositor's remark.
SMILES,Env fusion inh
C[C@@H]1CN([C@@H](C)CO)C(=O)c2cc(NS(=O)(=O)c3ccc(Cl)cc3)ccc2O[C@H]1CN(C)C(=O)Nc1ccc(C(F)(F)F)cc1,-10[16.7 µM]
CCNC(=O)C[C@@H]1CC[C@H]2[C@@H](COC[C@@H](O)CN2C(=O)c2ccccn2)O1,11[16.7 µM]
CC(C)NC(=O)Nc1ccc2c(c1)C(=O)N([C@H](C)CO)C[C@@H](C)[C@H](CN(C)Cc1ccc(-c3ccccc3)cc1)O2,3[16.7 µM]
CNC[C@H]1OCCCC[C@@H](C)Oc2ccc(NS(=O)(=O)c3cccs3)cc2C(=O)N([C@@H](C)CO)C[C@H]1C,13[16.7 µM]
COCC(=O)Nc1ccc2c(c1)OC[C@H](C)N(Cc1cccc(F)c1)C[C@@H](C)[C@@H](OC)CN(C)C2=O,13[16.7 µM]
C[C@@H](NC(=O)[C@@H]1[C@@H](CO)[C@@H]2Cn3c(ccc(-c4ccncc4)c3=O)[C@@H]2N1C)c1ccccc1,8[16.7 µM]
CO[C@@H]1CN(C)C(=O)c2cc(NS(C)(=O)=O)ccc2OC[C@H](C)N(C(=O)C2CCC2)C[C@H]1C,0[16.7 µM]
COC(=O)c1cc2c(c3c4cc(OC)ccc4n(S(C)(=O)=O)c13)C(=O)N(C)C2,3
CC(C)NC(=O)N(C)C[C@@H]1Oc2ccc(NS(=O)(=O)c3ccccc3)cc2CC(=O)N([C@@H](C)CO)C[C@@H]1C,-3[16.7 µM]
COc1ccc(NC(=O)N(C)C[C@H]2Oc3ccc(NS(=O)(=O)c4ccc(C)cc4)cc3CC(=O)N([C@H](C)CO)C[C@H]2C)cc1,-10[16.7 µM]
C[C@H]1CCCCO[C@H](CN(C)CC2CC2)[C@@H](C)CN([C@@H](C)CO)C(=O)c2cc(NC(=O)Nc3ccc4c(c3)OCO4)ccc2O1,2[16.7 µM]
C[C@@H]1CCCCO[C@H](CN(C)Cc2ccc(C(=O)O)cc2)[C@@H](C)CN([C@@H](C)CO)C(=O)c2cc(N(C)C)ccc2O1,-4[16.7 µM]
CO[C@@H]1CN(C)C(=O)c2ccc(NC(=O)c3nc4ccccc4s3)cc2OC[C@H](C)NC[C@H]1C,3[16.7 µM]
COc1cccc(C(=O)Nc2ccc3c(c2)C(=O)N(C)C[C@@H](OC)[C@@H](C)CN(C(C)=O)[C@H](C)CO3)c1,-9[16.7 µM]
O=C(C[C@@H]1CC[C@H]2[C@@H](COC[C@H](O)CN2Cc2ccccc2)O1)N1CCOCC1,8[16.7 µM]
CN1c2ccc(-c3ccccc3F)cc2[C@H]2[C@H](CCN2C(=O)NC2CCCCC2)[C@H]1CO,41[16.7 µM]
C[C@@H]1CN([C@@H](C)CO)S(=O)(=O)c2ccc(C#Cc3ccccn3)cc2O[C@@H]1CN(C)C,-34[16.7 µM]
CN(C)C(=O)C[C@H]1C[C@H]2c3cc(NC(=O)Nc4ccc(F)cc4)ccc3O[C@H]2[C@H](CO)O1,7[16.7 µM]
O=C(C[C@@H]1C[C@H]2c3cc(NC(=O)Nc4ccc(C(F)(F)F)cc4)ccc3O[C@H]2[C@H](CO)O1)NCc1ccc(Cl)cc1,19[16.7 µM]
O=S(=O)(c1ccc(-c2ccccc2)cc1)N1CCN(Cc2cccc(OCCO)c2)CC1,-5[16.7 µM]
C[C@@H]1CN([C@H](C)CO)S(=O)(=O)c2ccc(C3=CCCCC3)cc2O[C@H]1CN(C)C,11[16.7 µM]
O=C(C[C@H]1C=C[C@H](NS(=O)(=O)c2ccc(F)cc2)[C@@H](CO)O1)NC1CCCCC1,14[16.7 µM]
C#CCNC(=O)C[C@H]1C[C@@]2(C(=O)OC)C(=C[C@H](C(C)(C)C)O[C@@H]2C)N(CCc2ccc(OC)c(OC)c2)C1=O,-33
COc1ccc(C2CC(=O)C(c3ccc(Cl)cc3)=CN2Cc2ccccc2)cc1 (stereo not given),-16
C[C@@H]1CCCCO[C@@H](CN(C)C(=O)c2ccncc2)[C@H](C)CN([C@@H](C)CO)C(=O)c2cc(NC(=O)c3ccncc3)ccc2O1,-6[16.7 µM]
CN1C(=O)c2cc(NC(=O)C3CCCCC3)ccc2OC[C@H]2O[C@H](CC(=O)NCc3ccccc3F)CC[C@@H]21,-6[16.7 µM]
C[C@H](CO)N1C[C@H](C)[C@H](CN(C)C(=O)c2ccncc2)OCCCC[C@H](C)Oc2ccc(NC(=O)c3ccncc3)cc2C1=O,-8[16.7 µM]
CO[C@@H]1CN(C)C(=O)c2cc(NS(=O)(=O)c3cn(C)cn3)ccc2OC[C@H](C)N(CCC(F)(F)F)C[C@@H]1C,-4[16.7 µM]
Cc1cc(C)c(C2=NOC3c4ccccc4OCC23)c(C)c1 (stereo not given),-13
O=C(C[C@@H]1C=C[C@H](NC(=O)Cc2cccnc2)[C@H](CO)O1)Nc1ccccc1,-20[16.7 µM]
O=S(=O)(c1ccccc1)N1CCCc2nc(-c3ccc(Br)cc3)ccc21,15
C[C@@H]1CN([C@@H](C)CO)C(=O)c2cc(C3=CCCCC3)cnc2O[C@@H]1CN(C)C(=O)c1cccnc1,4[16.7 µM]
C[C@H]1CN([C@@H](C)CO)C(=O)c2c(c3ccccc3n2C)-c2ccccc2CO[C@@H]1CN(C)S(=O)(=O)c1cn(C)cn1,0[16.7 µM]
COc1ccc(-c2ccc3n(c2=O)C[C@H]2[C@H](CO)[C@@H](C(=O)NC4CCC4)N(S(C)(=O)=O)[C@@H]32)cc1,2[16.7 µM]
Cc1ccccc1CN1[C@@H](C)[C@H](c2ccccc2)Oc2cccc(NCCc3ccccc3)c2S1(=O)=O,9
Cc1ccc(S(=O)(=O)Nc2cccc3c2O[C@@H](CN(C)Cc2ccc(Cl)c(Cl)c2)[C@@H](C)CN([C@@H](C)CO)C3=O)cc1,13[16.7 µM]
CC(C)NC(=O)Nc1cccc2c1O[C@@H](CN(C)C)[C@@H](C)CN([C@H](C)CO)C2=O,-1[16.7 µM]
C[C@H]1CCCCO[C@@H](CN(C)C(=O)Cc2ccccc2)[C@@H](C)CN([C@@H](C)CO)C(=O)c2cc(N(C)C)ccc2O1,26[16.7 µM]
O=C(Nc1ccc2c(c1)[C@H]1C[C@H](CC(=O)N3CCc4ccccc4C3)O[C@@H](CO)[C@H]1O2)C1CCOCC1,-10[16.7 µM]
Nc1ncnc(N)c1NC(=O)c1ccccc1,-16
CCC(=O)N1CCC2(CC1)CN(C(C)=O)[C@@H](CO)c1[nH]c3cc(OC)ccc3c12,9[16.7 µM]
O=C(C[C@H]1C[C@@H]2c3cc(NC(=O)c4cccnc4)ccc3O[C@@H]2[C@@H](CO)O1)NCc1cc(F)ccc1F,3[16.7 µM]
COCC(=O)Nc1ccc2c(c1)[C@@H]1C[C@@H](CC(=O)N3CCOCC3)O[C@@H](CO)[C@@H]1O2,-2[16.7 µM]
CO[C@H]1CN(C)C(=O)c2ccc(NC(C)=O)cc2OC[C@@H](C)N(C(=O)c2ccccc2F)C[C@H]1C,-20[16.7 µM]
COc1ccc2c3c([nH]c2c1)[C@H](CO)N(C(=O)C1CCOCC1)CC31CCN(C(=O)NC(C)C)CC1,-9[16.7 µM]
C[C@H]1CN([C@@H](C)CO)C(=O)CCCn2cc(nn2)CO[C@H]1CN(C)Cc1ccncc1,10[16.7 µM]
C[C@@H]1CN([C@H](C)CO)C(=O)c2cccc(NS(C)(=O)=O)c2O[C@@H]1CN(C)Cc1ccc(Cl)c(Cl)c1,-24[16.7 µM]
CCCC(=O)N1CC2(C1)CN(C(=O)CN1CCOCC1)[C@@H](CO)c1c2c2ccc(OC)cc2n1C,-4[16.7 µM]
CCS(=O)(=O)Nc1ccc2c(c1)C(=O)N(C)C[C@H](OC)[C@H](C)CN(CC1CCCC1)[C@H](C)CO2,7[16.7 µM]
O=C(N[C@@H](Cc1cccnc1)C(=O)N1CCC[C@H]1C(=O)NC1CCCC1)c1cccs1,-7
COc1ccc2c3c([nH]c2c1)[C@@H](CO)N(C(=O)Nc1ccc(F)cc1)CC31CN(S(=O)(=O)c2cccc(F)c2)C1,-33[16.7 µM]
C[C@@H]1CN([C@@H](C)CO)S(=O)(=O)c2ccc(C#CCN(C)C)cc2O[C@H]1CN(C)C(=O)C1CCCCC1,-24[16.7 µM]
C[C@@H]1CN([C@@H](C)CO)C(=O)c2ccccc2-c2ccccc2CO[C@@H]1CN(C)S(C)(=O)=O,17[16.7 µM]
O=C(/C=C(\Nc1cccc(Cl)c1)c1ccccc1)c1ccccc1,-80
CCC(=O)N1C[C@@H](C)[C@@H](OC)CN(C)C(=O)c2ccc(NC(=O)c3cc(C)on3)cc2OC[C@H]1C,-36[16.7 µM]
C#CCN(Cc1ccco1)C(=O)c1nnc2c3ccccc3n(S(=O)(=O)c3ccccc3)c2n1,-13
COc1ccccc1C#Cc1cnc2c(c1)C(=O)N([C@H](C)CO)C[C@@H](C)[C@@H](CN(C)S(=O)(=O)c1cn(C)cn1)O2,-18[16.7 µM]
COc1ccc2c3c(n(C)c2c1)[C@@H](CO)N(C(=O)Nc1ccccc1F)CC31CCN(C(C)=O)CC1,-3[16.7 µM]
O=C(C[C@H]1C[C@H]2c3cc(NC(=O)Nc4ccccc4)ccc3O[C@H]2[C@H](CO)O1)NCc1ccccc1,13[16.7 µM]
COC(=O)[C@]12C[C@H](CC(=O)NCc3ccccc3)C(=O)N(Cc3ccccc3)C1=C[C@H](C(C)(C)C)O[C@@H]2C,10
# The list continues:
SMILES,Env fusion inh
COCC(=O)Nc1ccc2c(c1)C(=O)N(C)C[C@H](OC)[C@@H](C)CN[C@H](C)CO2,14[16.7 µM]
CC(C)C#Cc1ccc([C@@H]2[C@H](CO)N3C(=O)CN(C(=O)NC4CCCCC4)C[C@@H]23)cc1,21[16.7 µM]
COc1ccc(-c2cn(CC[C@H]3CC[C@H](NC(=O)CCN4CCCCC4)[C@H](CO)O3)nn2)cc1,-6[16.7 µM]
O=C(C[C@H]1CC[C@H](NC(=O)CCN2CCCCC2)[C@H](CO)O1)Nc1ccccc1,8[16.7 µM]
CO[C@H]1CN(C)C(=O)c2cc(NS(C)(=O)=O)ccc2OC[C@@H](C)N(C(=O)NC(C)C)C[C@@H]1C,-2[16.7 µM]
COc1ccccc1C#Cc1cnc2c(c1)C(=O)N([C@@H](C)CO)C[C@H](C)[C@H](CN(C)S(=O)(=O)c1cn(C)cn1)O2,22[16.7 µM]
CCCCc1c(-c2ccccc2OC)ncn1Cc1ccccc1F,0
Cc1ccc(-c2cnc3c(c2)C(=O)N([C@H](C)CO)C[C@H](C)[C@H](CN(C)S(C)(=O)=O)O3)cc1,-10[16.7 µM]
CC=Cc1ccc2n(c1=O)C[C@H]1[C@H](CO)[C@@H](C(=O)NCCN3CCCC3)N(C(=O)NC(C)C)[C@@H]21 (mixture of isomers),8[16.7 µM]
COC(=O)C[C@@H]1CC[C@H]2[C@@H](COC[C@@H](O)CN2C(=O)Nc2ccccc2OC)O1,-3[16.7 µM]
Cc1noc(C)c1NC(=O)Nc1ccc2c(c1)C(=O)N(C)[C@@H]1CC[C@H](CC(=O)N[C@H]3CCN(Cc4ccccc4)C3)O[C@H]1CO2,-7[16.7 µM]
CO[C@@H]1CN(C)C(=O)c2cc(NC(=O)NC(C)C)ccc2OC[C@H](C)N(Cc2cncnc2)C[C@@H]1C,-3[16.7 µM]
CCOC(=O)C1=C(C(=O)OCC)C2N(Cc3ccc(C#N)cc3)c3ccccc3[C@@]23C[C@@H](C(=O)OC)N(S(=O)(=O)c2ccccc2C)C3=N1 (stereo not given in full),-13
CCCNC(=O)[C@@H]1[C@@H](CO)[C@@H]2Cn3c(ccc(-c4ccccc4F)c3=O)[C@@H]2N1CC1CC1,0[16.7 µM]
COc1ccc(-c2cn(CC[C@@H]3CC[C@H](NC(=O)CCN4CCCCC4)[C@@H](CO)O3)nn2)cc1,20[16.7 µM]
O=C(C[C@H]1CC[C@@H]2[C@H](COC[C@@H](O)CN2C(=O)Nc2ccc(F)cc2)O1)NCCCN1CCOCC1,-5[16.7 µM]
CN1[C@@H]2c3ccc(/C=C/c4ccccc4)c(=O)n3C[C@@H]2[C@@H](CO)[C@@H]1C(=O)NCCCN1CCOCC1,47[16.7 µM]
CC(=O)N1[C@@H]2c3ccc(C4=CCCCC4)c(=O)n3C[C@H]1[C@H](CO)[C@H]2C(=O)N[C@@H](C)c1ccccc1,-6[16.7 µM]
Cc1cc(N/C(=C\C(=O)c2ccccc2)c2ccccc2)ccc1Br,22

# These rows are one share of the data; count on the stated rates, not on these rows.
